StopGo RLuc: lowers the Renilla signal of an FMDV 2A StopGo reporter; HEK cells with a luciferase reporter of 2A StopGo recoding; Potency, µM (doses to about 57.5 µM), inactives show top-dose signal change, negative = less light; hit rate 0.32% among 120,000; AID 1745857; active means well fitted falling curve with a large enough effect; inconclusive means small, poorly fitted or top-dose-only effect; inactive means no such curve, though single readings can be large or run the other way; also: nearly all actives have a fitted effect of over 55% in size; overnight with compound
StopGo FLuc: lowers the firefly signal of an FMDV 2A StopGo reporter. HEK cells with a luciferase reporter of 2A StopGo recoding. Potency, µM (titrated, usually from 57.5 µM), for inactives: at the highest dose signal change, negative = less light. hit rate 0.23% among 120,000. AID 1745856; active = well fitted falling curve with a large enough effect; inconclusive = small, poorly fitted or top-dose-only effect; inactive = no such curve, though single readings can be large or run the other way; also: nearly all actives have a fitted effect of over 60% in size; overnight with compound
* = called active by the depositor; ? = inconclusive; [ ] = another dose, or the depositor's remark. % is scaled to controls: 0 for no effect and ±100 for the full control effect; potency is read from the fitted curve at half-maximal effect. Not all compounds are listed; the hit share may differ from the screen's.

1. CC(C)(C)c1ccccc1NC(=O)CSc1ncnc2ccccc12
2. CC(C)CNc1nc(-c2ccc3c(c2)CC(C)N3S(C)(=O)=O)cs1 (centres undefined)
3. COC(=O)c1[nH]c2ccccc2c1NC(=O)CN1CCCC(C)C1 (centres undefined)
4. C=CCN1CC[C@]23c4c5ccc(O)c4O[C@H]2C(=O)CC[C@@]3(O)[C@H]1C5
5. CCc1sc(Nc2ccc(Cl)cc2)nc1-c1cc2cccc(OC)c2oc1=O
6. COC(=O)c1ccc([C@H]2Nc3ccc(S(=O)(=O)Nc4ccc(C)cc4)cc3[C@H]3C=CC[C@H]32)cc1
7. COc1ccc(CNS(=O)(=O)c2ccc3c(c2)N(C)CCS3)cc1
8. Cc1ccc(C2=Nc3ccccc3N(CC(=O)NCc3ccc(F)cc3)C(=O)C2)cc1C
screen / no. | 1 | 2 | 3 | 4 | 5 | 6 | 7 | 8
StopGo FLuc | -12% | 178%[activator] | -3% | -8% | 9% | -16% | -18% | 48%[activator]
StopGo RLuc | -24% | -1% | 93%[activator] | -10% | 24% | 30%[activator] | -27% | -12%

9. Cc1ccc(Nc2c3c(nc4nncn24)CCC3)cc1
10. CCC1Oc2ccc(C)cc2N(CC(=O)NCc2ccc(OC)cc2)C1=O (centres undefined)
11. CCOCCc1nn2c(=O)cc(COC(=O)C3CCCCC3)nc2s1
12. Cc1ccc(-c2nc(CN3CCCC3c3cc(C)no3)co2)cc1 (centres undefined)
13. COc1ccc(NC(=O)C2CCN(c3cc(C)nc4c(-c5ccc(Cl)cc5)c(C)nn34)CC2)cc1
14. COc1ccccc1NC(=O)c1c(NCc2ccc(OC)c(OC)c2OC)sc2c1CCC2
15. CCOC(=O)c1ccc2c(c1)N(CC(=O)N(C)c1ccccc1)C(=O)c1ccccc1S2
16. O=C(NCCCN1CCOCC1)c1csc(Nc2ccccc2Cl)n1
screen / no. | 9 | 10 | 11 | 12 | 13 | 14 | 15 | 16
StopGo FLuc | 0% | 33%[activator] | -19% | 114%[activator] | -4% | 32% | 14% | 35%[activator]
StopGo RLuc | 24% | 1% | -10% | 10% | -4% | 6% | 36%[activator] | -7%

17. CCCC(=O)Nc1ccccc1C(=O)OCc1cc(=O)n2nc(C(C)C)sc2n1
18. O=C(OCc1ccccc1)c1nc2ccccc2nc1N1CCN(c2ccccc2)CC1
19. COc1ccc(OCCNC(=O)c2n[nH]c(=O)c3ccccc23)cc1
20. NCCCOc1cccc2ccccc12
21. CC(C)CNC(=O)N1[C@H](c2cccs2)[C@@H](C)C(=O)[C@@H](C)[C@@H]1c1cccs1
22. Cc1ccc(NC(=O)c2ccc(CN3C(=O)CCn4nc(C)cc43)cc2)c(Cl)c1
23. COc1ccc2c(c1)c1c(c(=O)n(-c3cccc(Cl)c3)c(=O)n1CC(=O)N1CCCC1)n2C
24. COc1ccc(N2CCN(c3cc(C)nc4nc(-c5ccc(C)cc5)nn34)CC2)cc1
screen / no. | 17 | 18 | 19 | 20 | 21 | 22 | 23 | 24
StopGo FLuc | 0% | ? | 15% | 22% | -4% | -1% | -15% | -4%
StopGo RLuc | 4% | ? | 6% | 7% | -4% | 5% | -16% | -14%

One compound at a time, as listed above. Order of values: StopGo FLuc, StopGo RLuc
COc1ccc2c(c1)c1c(c(=O)n(-c3cccc(Cl)c3)c(=O)n1CC(=O)N1CCCC1)n2C in the list: -15%, -16%
COc1ccc(OCCNC(=O)c2n[nH]c(=O)c3ccccc23)cc1 in the list: 15%, 6%

Additional compounds:
25. OCCCNC(=S)Nc1ccc(Br)cc1
26. Cc1cc2nc(-c3cc(NC(=O)c4cc5ccccc5o4)ccc3Cl)oc2cc1C
27. CCC(=O)Nc1ccc2c3c(cccc13)CC2
28. Cc1ccc(NC(=O)c2sc3nc(-c4ccc(F)cc4)cn3c2C)cc1Cl
29. COc1cc2ncc3c(-c4ccccc4)nn(CC(=O)NC4CCCCC4)c3c2cc1OC
30. COc1ccc(-c2cn3nc(N4CCCC(C(=O)Nc5ccccc5F)C4)sc3n2)cc1 (centres undefined)
31. CN(C)c1cccc(C(=O)Nc2ccc(-c3ccccc3)cc2)c1
32. CCc1nn(CC(=O)NCCN(CC)CC)c(=O)c2cc3occc3n12
screen / no. | 25 | 26 | 27 | 28 | 29 | 30 | 31 | 32
StopGo FLuc | 75%[activator] | -10% | 66%[activator] | 65%[activator] | -7% | 70%[activator] | 0% | 8%
StopGo RLuc | -10% | -10% | 18% | -2% | -14% | 15% | 9% | -4%

33. Cc1cccc2c(C=O)c(C(C)(C)C)[nH]c12
34. FC(F)(F)c1cccc(C=Nc2cccc3c(N=Cc4cccc(C(F)(F)F)c4)cccc23)c1
35. N#C/C(=C/c1ccccc1OC(F)F)c1nc2cc(C(F)(F)F)ccc2s1
36. CCOC(=O)C1CCN(c2nc3ccccc3nc2Cl)CC1
37. Nc1nc(CN2CCN(C(=O)c3cc(F)cc(F)c3)CC2)nc2ccccc12
38. CCOC(=O)C1=C(CN2CCN(c3ccccc3F)CC2)NC(=O)NC1c1ccc(OC)cc1 (centres undefined)
39. O=C(CSCCSCC(=O)c1ccccc1)c1ccccc1
40. Cc1cc(NC(=O)NCCNc2ccc(C#N)cn2)n(-c2ccccc2)n1
screen / no. | 33 | 34 | 35 | 36 | 37 | 38 | 39 | 40
StopGo FLuc | 55%[activator] | 16% | -6% | -6% | -2% | -9% | ? | -8%
StopGo RLuc | -24% | -8% | -2% | -10% | -1% | 0% | 14% | 13%

41. COc1cccc2cc(C(=O)N(C)CCOc3ccccc3C)c(=O)oc12
42. CCC(NC(=O)C1CC1)C12CC3CC(CC(C3)C1)C2 (centres undefined)
43. c1ccc(C(CNCC2CC2)N2CCCC2)cc1 (centres undefined)
44. C=CCN1C(=O)S/C(=C\c2cn(CC(=O)OCC)c3ccccc23)C1=O
45. CCc1ccccc1NC(=O)Cn1cc2c(n1)CCC(C)C2 (centres undefined)
46. C=CCc1c(C)nc(Nc2nc(C)c3cc(CC)ccc3n2)[nH]c1=O
47. CCOC(=O)Cn1c(CN2CCN(c3ccc(OC)cc3)CC2)nc2c1c(=O)[nH]c(=O)n2C
48. CCN(CC)S(=O)(=O)c1ccc(N/N=C(/C)c2cccs2)c([N+](=O)[O-])c1
screen / no. | 41 | 42 | 43 | 44 | 45 | 46 | 47 | 48
StopGo FLuc | 58%[activator] | 9% | -10% | 5% | 24% | 18% | -15% | 0%
StopGo RLuc | 51%[activator] | 19% | 0% | -12% | -6% | -2% | -18% | 15%

49. CC(=O)Nc1ccc(-c2csc(Nc3ccc(C)cc3)n2)cc1
50. Cc1ccccc1-n1c(SCc2ccc(Cl)cc2)nc2[nH]ncc2c1=O
51. Cc1cc2oc(C(=O)NCC(c3cccs3)N3CCOCC3)cc(=O)c2cc1C (centres undefined)
52. COCc1ccccc1C(=O)NCC(O)c1ccccc1C(F)(F)F (centres undefined)
53. Cc1csc2nc(COc3ccccc3NC(=O)c3ccco3)cc(=O)n12
54. COc1ccc(-n2c(=O)c3sc4ccccc4c3n(CC(=O)N3CCCC3)c2=O)cc1
55. COCCn1c(SCc2ccc(Cl)cc2)nc2c1c(=O)[nH]c(=O)n2C
56. CN1C(C)(C)CCCC1(C)C
screen / no. | 49 | 50 | 51 | 52 | 53 | 54 | 55 | 56
StopGo FLuc | 185%[activator] | -30% | -14% | -5% | -18% | -19% | 10% | -12%
StopGo RLuc | 48%[activator] | -17% | -12% | 6% | -3% | -9% | -2% | -15%

57. CCCCn1nnc(NC(=O)COc2ccc(C(C)(C)C)cc2)n1
58. Cc1oc(-c2nc(C#N)c(N3CCCC3)o2)cc1S(=O)(=O)N(C)C
59. COC(=O)c1ccc(CC(Cc2ccc(C(=O)OC)o2)(C(C)=O)C(C)=O)o1
60. N#Cc1cccc(Cn2cnc3c(Cl)cc(Cl)cc3c2=O)c1
61. CC(C)OCc1cccc(CNC(=O)CNC(=O)C2CCCC2)c1
62. CCOC(=O)N1CCC(NC(=O)c2cnn(-c3ccc(C)cc3)c2C2CCN(C(=O)OC(C)(C)C)CC2)CC1
63. Cc1nc2ccccn2c(=O)c1NC(=O)c1c(F)cccc1F
64. CCOC(=O)c1cccc(NC(=O)c2oc3c(c2C)-c2[nH]ncc2CC3)c1
screen / no. | 57 | 58 | 59 | 60 | 61 | 62 | 63 | 64
StopGo FLuc | 18% | 8% | 74%[activator] | -2% | 6% | -14% | -11% | 79%[activator]
StopGo RLuc | 6% | -14% | 14% | 9% | 0% | -7% | -7% | -6%

65. CCc1nnsc1C(=O)N(C)CCOc1ccccc1
66. Cc1noc(C(C)C)c1C(=O)Nc1ccc(OC(F)F)c(Cl)c1
67. CCn1cnc2c1c(=O)n(CC(=O)NCC(c1ccccc1)N(C)C)c(=O)n2Cc1ccccc1 (centres undefined)
68. CCNc1c(NC(=O)Cc2ccccc2)c(=O)oc2ccccc12
69. COC(=O)c1ccc(Nc2nc(-c3ccccc3Cl)nc3ccccc23)cc1
70. Cc1oc(-c2cccs2)nc1CC(=O)N1CCC1
71. CCn1nc(C(=O)Nc2cccc(C)n2)c2ccccc2c1=O
72. O=C(CN1C(=O)CC(c2ccccc2)Sc2ccccc21)Nc1ccc(Br)cc1 (centres undefined)
screen / no. | 65 | 66 | 67 | 68 | 69 | 70 | 71 | 72
StopGo FLuc | 0% | 23% | 24% | -2% | 56%[activator] | -1% | 32%[activator] | 9%
StopGo RLuc | -2% | -3% | -5% | 3% | 4% | 4% | 4% | -1%

73. CN1C(=O)C(O)(CC(=O)c2cccnc2)c2ccccc21 (centres undefined)
74. COc1ccccc1CNC(=O)c1ccc(N2Cc3cccc(OC)c3Oc3ncccc32)s1
75. CCCOc1c(Cl)cc(/C=C/C(=O)c2ccc(O)c(OC)c2)cc1OC
76. CN(C)S(=O)(=O)c1ccc(-c2nc(C#N)c(N3CCN(c4ccccc4)CC3)o2)cc1
77. Cc1ccc(-c2cccc(=O)o2)cc1
78. O=C(/C=C/c1ccco1)N(Cc1cccs1)C1CC1
79. CCOC(=O)c1ccc(N2C(=O)c3n[nH]c(C)c3C2c2ccc(F)cc2)cc1 (centres undefined)
80. COc1cccc(-c2cc(C(=O)N3CCN(c4ccccc4OC)CC3)no2)c1
screen / no. | 73 | 74 | 75 | 76 | 77 | 78 | 79 | 80
StopGo FLuc | 19% | -14% | 16% | -10% | 32%[activator] | 9% | -2% | 1%
StopGo RLuc | 5% | -4% | ? | -7% | 6% | 60%[activator] | -2% | -1%

81. O=C(OCc1nc2ccccc2o1)c1cccc(O)c1
82. Cc1cccc(NC(=S)NCCc2ccccc2)c1
83. CCOc1ccc(CNC(=O)CCc2c(C)nn(-c3ccc(N4CCOCC4)nn3)c2C)cc1
84. C=CCNC(=O)NC(=O)C12CC3CC(CC(C3)C1)C2
85. O=C(CSc1nncn2c1cc1sccc12)Nc1ccccc1C(F)(F)F
86. O=C(Nc1nn(Cc2ccccc2F)cc1Cl)c1nc2ncccn2n1
87. CCc1c(C)sc(NC(=O)c2ccc(Cl)c(Cl)c2)c1C#N
88. CN1C(=O)CC(c2ccc(Cl)cc2)C2=C1CC(C)(C)CC2=O (centres undefined)
89. CN(C)C(=O)C1CCN(c2oc(-c3ccco3)nc2C#N)CC1
90. CC(C)(CNC(=O)CCCNC(=O)C1CC1)c1ccccc1
91. COc1ccc(-c2csc3ncnc(Nc4ccc(OC)c(OC)c4)c23)cc1
screen / no. | 81 | 82 | 83 | 84 | 85 | 86 | 87 | 88 | 89 | 90 | 91
StopGo FLuc | 128%[activator] | 20% | -16% | 0% | 10% | 75%[activator] | 166%[activator] | -9% | 3% | 9% | ?
StopGo RLuc | -11% | 130%[activator] | -10% | 7% | -6% | -4% | -4% | -1% | 1% | -7% | -6%

By substructure: the compounds so far containing a thiophene ring, fused or not.
14. COc1ccccc1NC(=O)c1c(NCc2ccc(OC)c(OC)c2OC)sc2c1CCC2
21. CC(C)CNC(=O)N1[C@H](c2cccs2)[C@@H](C)C(=O)[C@@H](C)[C@@H]1c1cccs1
48. CCN(CC)S(=O)(=O)c1ccc(N/N=C(/C)c2cccs2)c([N+](=O)[O-])c1
51. Cc1cc2oc(C(=O)NCC(c3cccs3)N3CCOCC3)cc(=O)c2cc1C (centres undefined)
54. COc1ccc(-n2c(=O)c3sc4ccccc4c3n(CC(=O)N3CCCC3)c2=O)cc1
70. Cc1oc(-c2cccs2)nc1CC(=O)N1CCC1
74. COc1ccccc1CNC(=O)c1ccc(N2Cc3cccc(OC)c3Oc3ncccc32)s1
78. O=C(/C=C/c1ccco1)N(Cc1cccs1)C1CC1
85. O=C(CSc1nncn2c1cc1sccc12)Nc1ccccc1C(F)(F)F
87. CCc1c(C)sc(NC(=O)c2ccc(Cl)c(Cl)c2)c1C#N
screen / no. | 14 | 21 | 48 | 51 | 54 | 70 | 74 | 78 | 85 | 87
StopGo FLuc | 32% | -4% | 0% | -14% | -19% | -1% | -14% | 9% | 10% | 166%[activator]
StopGo RLuc | 6% | -4% | 15% | -12% | -9% | 4% | -4% | 60%[activator] | -6% | -4%

91. COc1ccc(-c2csc3ncnc(Nc4ccc(OC)c(OC)c4)c23)cc1
screen / no. | 91
StopGo FLuc | ?
StopGo RLuc | -6%

High-throughput results from PubChem BioAssay.
